Compound activity deposited in PubChem BioAssay by National Center for Advancing Translational Sciences (NCATS).
ClpP mod: qHTS Assay for Activators of ClpP | AID 651965, 2013 | ATP-dependent Clp protease proteolytic subunit (Bacillus subtilis (strain 168)), P80244 | Potency, µM (highest dose often 57.5 µM), for the others: at the highest dose activity change, negative = active | purified B. subtilis ClpP, FRET peptide cleavage, 20 min | 340,000 tested, 1.9% active; active = well fitted falling curve with a large enough effect; inconclusive = small, poorly fitted or top-dose-only effect; inactive = no such curve, though single readings can be large or run the other way; note: potency is the fitted concentration of half-maximal effect; the source files actives as falling curves though it sought activators and does not explain the sign; nearly all actives have a fitted effect of over 65% in size; many hits overshoot -100%
Target sequence (P80244 whole entry, looked up): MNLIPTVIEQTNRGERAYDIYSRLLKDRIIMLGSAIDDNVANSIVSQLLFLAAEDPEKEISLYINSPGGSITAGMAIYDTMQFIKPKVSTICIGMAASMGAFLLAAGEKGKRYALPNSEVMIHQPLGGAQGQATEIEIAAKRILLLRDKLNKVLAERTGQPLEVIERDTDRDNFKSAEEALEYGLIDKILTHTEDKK
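FRET quenching reversal measured ClpP activation: 10 microg/mL B. subtilis ClpP at pH 8 with the FRET-FV decapeptide, read at 430 nm after 320 nm excitation. The 20-min minus 0-min signal was scaled between DMSO/no-enzyme wells and ADEP (5.8 microM final).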
CtBP-E1A inh: inhibitors of CtBP/E1A interaction. 340,000 tested, 0.49% active. activity change, % (no concentration beside the values). AlphaScreen GST-E1A/His-CtBP binding, 1536-well; hits give low values; control for the full effect not named in the record. AID 651724; in the data active means activity change below about -65%; inconclusive means about -30% to -65%; inactive means above about -30%; note: % is set by controls: 0 for no effect and ±100 for the full control effect; compound concentration not given in the record
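Homogeneous bead-based format: GST-tagged E1A captured on glutathione donor beads, His-tagged CtBP on nickel acceptor beads; compounds precede bead addition by 2 h at 37 °C.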
gsp antag: gsp mutant antagonism; gsp-mutant cells, cAMP HTRF, 30 min; control for the full effect not named in the record; Potency, µM (doses to about 76.9 µM), inactives show at the highest dose activity change, negative = inhibition, most hits filed as inhibitors; 340,000 tested, 0.4% active; active = falling curve of any shape with a large fitted effect; inconclusive = falling curve, mostly with a smaller effect; inactive = flat or rising curve; cell line not stated here;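 note: intracellular cAMP measured with PDE inhibitor Ro 20-1724 present during compound exposure; potency is the fitted concentration of half-maximal effect; % is set by controls: 0 for no effect and ±100 for the full control effect; nearly all actives have a fitted effect of over 65% in size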
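HTRF cAMP measurement after 30 min RT detection following 30 min, 37C compound treatment alongside […] (added as 300 uM solution) in G418-selected cells seeded at 2000/well and grown 16–24 h.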
gsp ag: agonists of gsp mutant (McCune-Albright syndrome); Potency, µM (highest dose often 76.9 µM), without a hit: at the top dose activation (cAMP increase), actives largely listed as activators; AID 624287; gsp mutant cells, cAMP HTRF, 30 min; control for the full effect not named in the record; 340,000 tested, 0.13% active; active = well fitted activation curve with a large enough effect; inconclusive = small, poorly fitted or top-dose-only effect, or another doubt; inactive = no such curve, though single readings can be large or run the other way; cell line not stated here;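 note: phosphodiesterase inhibitor Ro 20-1724 added with compounds to block cAMP breakdown; potency is the fitted concentration of half-maximal effect; nearly all actives have a fitted effect of over 60% in size; about a fifth of the inactives were tested at one dose only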
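Cells in DMEM/10% FBS with G418 were pretreated with compounds in DMSO plus […] (300 uM stock) for 30 min at 37C. cAMP was measured by HTRF (cAMP-d2 plus anti-cAMP antibody-K) after 30 min at room temperature.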
Sfp inh: Sfp phosphopantetheinyl transferase inhibition. Q9F4F7. Biochemical Sfp PPTase activity, qHTS. Potency, µM, for inactives: max response, negative = inhibition, hits mostly inhibitors. 310,000 tested, 3.5% active. AID 1490; active = well fitted inhibition curve with a large enough effect; inconclusive = small, poorly fitted or top-dose-only effect, or another doubt; inactive = no such curve, though single readings can be large or run the other way;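 note: the enzyme is Sfp with the accession as filed and its product quenches rhodamine fluorescence; potency is the fitted concentration of half-maximal effect; 0% = enzyme reaction without inhibitor and -100% = no enzyme wells; top concentration of the series not given in the record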
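Reaction rates are the 30-min fluorescence difference (ex 525, em 598 nm) in wells containing 15 nM Sfp, 5 uM rhodamine-CoA and 12.5 uM BHQ-2-YbbR at pH 7.6 with 10 mM MgCl2.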
Menin-MLL FL inh: menin-MLL binding inhibition, fluorescein peptide; FP activity change, % at 61.4 µM; 290,000 tested, under 10 active; Fluorescence polarization, fluorescein-MLL peptide displacement from menin; inconclusive = falling polarisation curve, or a change in total fluorescence; inactive = total fluorescence flat and polarisation flat or rising; no compound was filed as active; the % refers to the polarisation; negative = inhibition;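 note: % of control where 0% means no effect; inhibitors lower the polarisation; unlabelled MLL peptide was the positive control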
TRPV1 potentiator: human TRPV1 potentiation. Q8NER1. AID 540277. 320,000 tested, 0.02% active. TRPV1-expressing cells, Fluo-8 calcium influx, capsaicin EC20 potentiation; host cell line not named in the record; control for the full effect not named in the record. potentiation, % at 8.33 µM; active means potentiation above 80%; inconclusive means 30% to 80%; inactive means below 30%; note: 0% is about no effect
Target sequence (Q8NER1 whole entry, looked up): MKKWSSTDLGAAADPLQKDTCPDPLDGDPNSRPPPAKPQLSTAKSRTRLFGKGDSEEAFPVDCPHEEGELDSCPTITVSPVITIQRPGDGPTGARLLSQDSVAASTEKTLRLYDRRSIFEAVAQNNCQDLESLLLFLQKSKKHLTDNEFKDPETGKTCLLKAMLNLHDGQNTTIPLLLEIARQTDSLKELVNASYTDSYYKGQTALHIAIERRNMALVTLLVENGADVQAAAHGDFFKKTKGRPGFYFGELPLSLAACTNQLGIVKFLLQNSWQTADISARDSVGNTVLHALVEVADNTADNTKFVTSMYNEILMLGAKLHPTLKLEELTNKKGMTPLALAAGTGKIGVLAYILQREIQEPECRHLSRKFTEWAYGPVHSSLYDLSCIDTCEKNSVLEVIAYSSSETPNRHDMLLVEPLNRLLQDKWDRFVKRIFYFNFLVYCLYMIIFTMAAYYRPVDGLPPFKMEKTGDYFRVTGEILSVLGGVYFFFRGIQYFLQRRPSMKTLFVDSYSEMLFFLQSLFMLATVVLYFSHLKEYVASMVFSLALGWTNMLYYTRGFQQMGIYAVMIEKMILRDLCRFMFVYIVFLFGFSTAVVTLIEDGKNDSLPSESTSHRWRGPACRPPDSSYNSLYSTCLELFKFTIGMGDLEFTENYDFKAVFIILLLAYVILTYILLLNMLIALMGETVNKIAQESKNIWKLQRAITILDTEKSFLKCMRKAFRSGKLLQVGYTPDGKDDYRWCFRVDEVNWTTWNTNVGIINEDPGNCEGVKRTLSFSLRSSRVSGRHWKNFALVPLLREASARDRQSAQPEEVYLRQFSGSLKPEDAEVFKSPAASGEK
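TRPV1-expressing cells were cultured overnight at 35.5C and loaded with Fluo-8 calcium dye for 40 to 90 min at room temperature. After a 10 s baseline, compound was added and calcium influx was read kinetically for 3 min (ex 480/em 520 nm).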
The depositor's hits bear a star; ? = inconclusive; / = no result given; [ ] = another dose, or the depositor's remark.

canonical_smiles,CtBP-E1A inh,Menin-MLL FL inh,gsp antag,TRPV1 potentiator,Sfp inh,ClpP mod,gsp ag
COc1ccc(/C=N/Nc2nc(=O)[nH]nc2C)cc1OC,-25,-0.6,4%,-23,19%,/,18%[15.4 µM]
ON=C1CCCCCCCC1,-19,/,3%,/,/,-2.7%,13%
COc1cc(C(=O)NCc2ccc(-n3cccc3)cc2)cc(OC)c1OC,/,0.2,/,4,15%,/,/
OCCNc1nnc(-c2ccccc2)c(-c2ccccc2)n1,1,/,2%,/,/,0.6%,-29%
CC(=O)N1CCCC1(C(=O)O)c1ccccc1 (stereo not given),10,-0.2,14%,-10,32%[activator],/,-9%[15.4 µM]
Cc1cc(C(=O)N/N=C/c2cccc([N+](=O)[O-])c2)c(C)n1-c1ccccc1,7,3.8,-12%,6,4%,0.7%,-14%
O=S(=O)(NCc1ccccc1)c1ccc(S(=O)(=O)N(Cc2cccs2)CC2CCCO2)cc1 (stereo not given),4,-0.7,0%,-3,20%,-1.0%,-49%[inhibitor]
Cc1cc(C)c2nc(C(F)(F)F)nc(N3CC(C)OC(C)C3)c2c1 (stereo not given),/,1.8,-4%,-9,-15%,-22%,29%
Cc1c(NC(=O)c2nn3c(C(F)(F)F)cc(-c4ccccc4)nc3c2Br)c(=O)n(-c2ccccc2)n1C,?,2.0,1%,12,-4%,-0.7%,11%
COc1ccc(NC(=O)c2ccccc2CC[N+](=O)[O-])cc1,2,0.0,9%,0,21%,/,14%[15.4 µM]
C/C(CC(=O)NC(C)(C)C)=N\NC(=O)COc1ccc(C)cc1Br,-15,1.8,-1%,4,-13%,-1.6%,-11%[15.4 µM]
CN(C)CCNC=C(C(=O)Nc1ccc(Cl)cc1Cl)C(=O)Nc1ccc(Cl)cc1Cl,2,-2.1,13%,20,?,0.7%,10%
COC(=O)N/N=C/c1c[nH]c2ccccc12,2,2.3,2%,3,10%,-0.3%,0%
COc1ccc(N2CC(NS(=O)(=O)c3ccc(F)cc3)CC2=O)cc1 (stereo not given),13,/,10%,8,/,/,-18%[15.4 µM]
O=C(Nc1ccccc1Cl)c1c(F)c(F)c(F)c(F)c1F,3,/,8%,/,/,0.9%,-4%[15.4 µM]
O=C(NCCN1CCOCC1)c1ccccc1N1C(=O)[C@@H]2Cc3c([nH]c4ccccc34)C(c3ccc(F)cc3)N2C1=O (stereo not given in full),-1,-15,1%,-2,1%,-7.0%,/
CCn1c(Cc2ccccc2)nnc1SCc1ccc([N+](=O)[O-])cc1,4,2.8,5%,-12,6%,/,-15%
O=C(/C=C/c1cccc(F)c1)Nc1cc(S(=O)(=O)N2CCOCC2)ccc1N1CCCC1,19,3.4,?,-11,4%,1.4%,5%
CCCOc1ccc(S(=O)(=O)NCCN2CCOCC2)c2ccccc12,0,0.9,-6%,6,3%,-9.3%,22%
CCCCNC(=O)CC1Nc2ccccc2NC1=O (stereo not given),1,3.7,6%,-3,-6%,-22%,?
O=C(Cc1ccccc1[N+](=O)[O-])N/N=C/c1cccnc1,0,/,2%,4,9%,0.2%,-16%
Cc1ccc(C)c(/C(O)=C2\C(=O)C(=O)N(CCCn3ccnc3)C2c2ccncc2)c1 (stereo not given),3,-0.2,8%,27,?,-1.6%,-4%
CC1(C)C2CCC(CN=C(N)CSS(=O)(=O)O)C1C2 (stereo not given),-20,/,/,/,/,-2.1%,-3%
CC(=O)OCc1c(C(F)(F)F)nn(C)c1Oc1ccccc1,-16,-0.3,-6%,-4,25%,-3.8%,15%
CC(OC(=O)CN1C(=O)c2ccccc2C1=O)C(=O)NC1(C#N)CCCCC1 (stereo not given),-2,/,4%,-4,/,-1.6%,17%
Cc1ccc(C(=O)OCc2nnc(-c3ccc(Br)cc3)o2)cc1,26,6.2,15%,7,-8%,0.1%,?
Cc1cccc(C)c1N(CC(=O)N1CCOCC1)S(C)(=O)=O,5,2.7,13%,-4,13%,-0.1%,7%[15.4 µM]
CCC(=O)c1ccc(N2CCN(C(=O)c3cc([N+](=O)[O-])ccc3N3CCN(C)CC3)CC2)c(F)c1,-22,2.9,4%,-27,-6%,1.4%,-2%
O=C(NNC(=O)c1cc2ccccc2cc1O)Nc1ccccc1F,-2,7.0,-12%,6,-2%,-2.2%,3%
Cc1ccc(C)c(N2CCN(C(=O)C3CCCN(c4ncnc5c4nc4n5CCCCC4)C3)CC2)c1 (stereo not given),0,-3.3,?,-5,-22%,0.4%,12%

Copied from the list:
`Cc1ccc(C)c(/C(O)=C2\C(=O)C(=O)N(CCCn3ccnc3)C2c2ccncc2)c1` (stereo not given) | gsp ag = -4%
`O=C(Cc1ccccc1[N+](=O)[O-])N/N=C/c1cccnc1` | gsp antag = 2%
`Cc1ccc(C)c(N2CCN(C(=O)C3CCCN(c4ncnc5c4nc4n5CCCCC4)C3)CC2)c1` (stereo not given) | TRPV1 potentiator = -5

The list goes on:
canonical_smiles,CtBP-E1A inh,Menin-MLL FL inh,gsp antag,TRPV1 potentiator,Sfp inh,ClpP mod,gsp ag
O=C(CCNC(=O)c1ccccc1Cl)Nc1cccc(S(=O)(=O)N2CCCCC2)c1,-1,/,-24%,16,/,0.6%,-8%[15.4 µM]
COc1cccc(-c2nc(C(N)=O)c3[nH]c(=O)n(-c4cccc(Cl)c4)c3n2)c1OC,25,2.1,-15%,24,-1%,-11%,-41%[inhibitor]
OC(C#CCN1CCOCC1)(c1ccccc1)C1CCCCC1 (stereo not given),-1,3.3,3%,27,-3%,-0.2%,-32%
Cc1cccc(OCc2nnc(SCC(=O)Nc3ccc(N4CCOCC4)cc3)o2)c1,-3,2.4,3%,10,17%,/,2%
COc1cc(SC)ccc1C(=O)N1CCN(S(=O)(=O)/C=C/c2ccccc2)CC1,-4,/,-11%,1,/,-4.6%,?
COc1ccc(C)cc1Nc1nc(N)c2cc(OC)c(OC)cc2n1,?,0.1,-2%,4,-8%,-29%,14%
CCS(=O)(=O)Nc1ccc(C2=NN(C(=O)c3ccccc3)C(c3cccs3)C2)cc1 (stereo not given),-11,-4.1,28µM*,8,-6%,-7.6%,6%
Cc1cc(C)c(NC(=O)Cn2cc3c(n2)CCCC3)c(C)c1,1,2.1,7%,7,12%,-0.1%,-6%
CC(=O)OC[C@H]1O[C@@H](O/N=C/[C@@H](C)[C@H](OCc2ccccc2)C(C)C)[C@H](OC(C)=O)[C@@H](OC(C)=O)[C@@H]1OC(C)=O,/,-1.7,/,17,1%,/,/
CCC1Oc2ccc(C)cc2N(CC(=O)NCc2ccccc2OC)C1=O (stereo not given),-1,1.2,2%,/,-1%,1.7%,-19%
O=C1c2cccc(OCC(=O)N3N=C(c4cccs4)CC3c3ccc(F)cc3)c2CCN1Cc1cccnc1 (stereo not given),-13,-5.0,?,-10,-20%,28µM*,0%
Cc1cc(C)cc(N(CC(=O)Nc2c(C)n(C)n(-c3ccccc3)c2=O)S(C)(=O)=O)c1,9,-1.5,0%,1,6%,-2.2%,-6%
Cc1cc(C(F)(F)F)nc(SCC(=O)NC2CC3CCC2C3)n1 (stereo not given),6,-4.2,11%,-19,8%,-1.0%,-28%
CC12CCC3c4ccc(OCC(=O)O)cc4CCC3C1CCC2=O (stereo not given),2,/,-21%,/,/,0.8%,5%[15.4 µM]
Cc1cc(OCC(=O)Nc2cccc(S(=O)(=O)NC3=NCCCCC3)c2)ccc1Cl,-7,5.4,-26%,5,8%,-0.5%,10%[15.4 µM]
Cc1ccc(Cn2ccc(NC(=O)c3cc(C(C)C)on3)n2)cc1,5,-0.1,-3%,/,21%,-3.0%,-107%[inhibitor]
Cc1ccccc1-c1nnc(SCC(=O)Nc2cccc(C)c2C)o1,0,0.6,12%,19,6%,1.0%,13%
O=C(NNC(=O)c1ccc(Br)s1)NC1CCCCC1,9,0.8,11%,5,5%,-0.6%,0%
C[C@H](NC(=O)N1CCn2c1nc1ccccc12)C(=O)NC1CC1,/,/,8%,-31,0%,-0.2%,-25%
COC(=O)c1ccc(/C=N/NC(=O)c2ccc3nc[nH]c3c2)cc1,/,-0.2,8%,7,20%,2.7%,-28%
CC1=C(C(=O)N(C)C)CC(CC(=O)NCCCCc2ccccc2)C(=O)N1Cc1ccccc1 (stereo not given),-11,/,/,/,/,0.2%,-36%[inhibitor]
BrC(=C\c1ccccc1)/C=N/Nc1ccc2nncn2n1,?,1.8,0%,25,?,/,-7%
COCCNc1nc(N)c([N+](=O)[O-])c(NCc2ccccc2)n1,11,0.8,-2%,1,2%,/,32%
COc1cccc(NC(=O)CN(C)C(=O)CSc2nc(C)cc(C)n2)c1,8,/,18%,-7,/,0.3%,-16%
COc1cc(C(=S)N2CCCC2)ccc1OS(=O)(=O)c1ccc(NC(C)=O)cc1,-3,2.5,-10%,-6,1%,-0.4%,32%
Cc1cc(C(=O)NCCN2CCOCC2)ccc1[N+](=O)[O-],1,-0.1,-6%,5,17%,/,11%[15.4 µM]
CN1C(=O)CC(N2CCC(C(N)=O)(N3CCCCC3)CC2)C1=O (stereo not given),6,-1.9,16%,-28,5%,2.0%,-15%
Cc1nn(C)c(C)c1C(C)NC(=O)c1ccc(OC2CCN(Cc3ccccn3)CC2)cc1 (stereo not given),-10,-6.2,9%,-9,-10%,-2.3%,-1%
COc1ccc(NC(=O)c2cc(C(C)C)on2)c(OC)c1,4,-1.7,-3%,27,-18%,2.1%,?
O=C1CCCN1CCCN1CC(C(=O)N(CCO)Cc2ccccc2)CCC1=O (stereo not given),-1,/,-19%,7,12%,32µM*,-39%[inhibitor]
O=C(Nc1ccc(OCc2ccccc2)cc1)Nc1cccnc1,-6,-4.0,2%,-9,9%,/,0%
O=C(NC1CCCCC1)C(c1ccccc1)N1CCOCC1 (stereo not given),2,0.2,-7%,12,19%,0.8%,-1%
